Screening data from PubChem.
TRPV1 PAM = enhances activation of the human vanilloid receptor TRPV1 | AID 540277 | TRPV1-expressing cells, Fluo-8 calcium influx, capsaicin EC20 potentiation; host cell line not named in the record; control for the full effect not named in the record | Q8NER1 | 320,000 compounds, 0.02% hits | potentiation, % at 8.33 µM; active means potentiation above 80%; inconclusive means 30% to 80%; inactive means below 30%; also: 0% is about no effect
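Cells expressing TRPV1 were dye-loaded with Fluo-8 and read kinetically: 10 s baseline, 3 min after compound (agonist portion), then 2 min after EC20 capsaicin (allosteric enhancer portion). Calcium-bound dye fluorescence at 480/520 nm.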
TRPML1 inh = inhibitors of human TRPML1 channel; Q9GZU1; TRPML1-inducible cells, Ca2+ dye fluorescence, FDSS; active compounds read low; inhibition of EC80 agonist-evoked calcium signal; activity change, negative = inhibition, % (no concentration beside the values); 390,000 compounds, 0.02% hits; AID 624415; in the data active means activity change below about -50%; inconclusive means about -30% to -50%; inactive means above about -30%;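 also: stimulus is agonist 54-4 at its EC80 concentration; % is scaled to controls: 0 for no effect and ±100 for the full control effect; compound concentration not given in the record; the text of the record puts the active cut at -80%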
Target sequence (Q9GZU1 whole entry, looked up): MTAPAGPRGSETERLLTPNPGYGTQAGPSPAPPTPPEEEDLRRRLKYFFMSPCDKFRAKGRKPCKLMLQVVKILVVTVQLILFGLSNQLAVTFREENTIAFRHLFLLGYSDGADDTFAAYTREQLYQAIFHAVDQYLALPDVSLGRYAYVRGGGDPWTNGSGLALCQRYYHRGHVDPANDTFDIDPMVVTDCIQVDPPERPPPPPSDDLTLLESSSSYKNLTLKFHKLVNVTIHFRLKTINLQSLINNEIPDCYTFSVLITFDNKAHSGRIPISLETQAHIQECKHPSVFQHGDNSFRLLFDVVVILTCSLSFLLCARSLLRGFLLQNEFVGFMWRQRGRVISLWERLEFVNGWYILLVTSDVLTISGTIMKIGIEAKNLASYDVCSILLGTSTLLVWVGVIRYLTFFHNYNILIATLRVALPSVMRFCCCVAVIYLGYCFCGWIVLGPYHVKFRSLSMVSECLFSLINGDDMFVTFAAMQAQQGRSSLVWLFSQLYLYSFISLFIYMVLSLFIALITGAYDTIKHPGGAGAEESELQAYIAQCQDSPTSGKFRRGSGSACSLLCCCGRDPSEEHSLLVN
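Calcium fluorescence in TRPML1-DL cells induced overnight with Tet: a 110 s read after compound pin addition, then a 110 s antagonist read after challenge with 54-4 at 4 uM final (EC80).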
PINK1 modulator = PINK1 expression modulation | PINK1 immunofluorescence, high-content cytometry, 24 h | Potency, µM (top dose mostly 76.6 µM), inactives show at the highest dose activation (PINK1 increase), hits mostly activators | 410,000 compounds, 0.2% hits | AID 624263; active = well fitted activation curve with a large enough effect; inconclusive = small, poorly fitted or top-dose-only effect; inactive = flat fitted curve, though single readings scatter; cell line not stated here;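 also: potency is read from the fitted curve at half-maximal effect; % of control where 0% means no effect; nearly all actives have a fitted effect of over 65% in size; a mitochondrial uncoupler was the plate control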
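Decision-based qHTS: stable cells, 24 h exposure to five compound concentrations, CCCP as control. Fixed cells stained for PINK1 plus nuclear, mitochondrial and cell markers, cytometer read.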
ClpP mod = qHTS Assay for Activators of ClpP. purified B. subtilis ClpP, FRET peptide cleavage, 20 min. Potency, µM (titrated, usually from 57.5 µM), for the others: at the top dose activity change, negative = active. 340,000 compounds, 1.9% hits; active = well fitted falling curve with a large enough effect; inconclusive = small, poorly fitted or top-dose-only effect; inactive = no such curve, though single readings can be large or run the other way; also: potency is read from the fitted curve at half-maximal effect; the source files actives as falling curves though it sought activators and does not explain the sign; nearly all actives have a fitted effect of over 65% in size; many hits overshoot -100%
Target sequence (P80244 whole entry, looked up): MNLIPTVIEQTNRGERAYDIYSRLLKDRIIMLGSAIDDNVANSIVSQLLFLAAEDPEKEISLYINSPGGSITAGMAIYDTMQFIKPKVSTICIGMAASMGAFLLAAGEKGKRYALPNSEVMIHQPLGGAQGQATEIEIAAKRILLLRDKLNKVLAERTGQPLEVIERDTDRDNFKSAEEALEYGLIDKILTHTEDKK
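FRET quenching reversal measured ClpP activation: 10 microg/mL B. subtilis ClpP at pH 8 with the FRET-FV decapeptide, read at 430 nm after 320 nm excitation. The 20-min minus 0-min signal was scaled between DMSO/no-enzyme wells and ADEP (5.8 microM final).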
Sfp inh = inhibitors of Bacillus subtilis Sfp phosphopantetheinyl transferase. Q9F4F7. Biochemical Sfp PPTase activity, qHTS. Potency, µM, for the others: max response, negative = inhibition, usual class: inhibitors. 310,000 compounds, 3.5% hits; active = well fitted inhibition curve with a large enough effect; inconclusive = small, poorly fitted or top-dose-only effect, or another doubt; inactive = no such curve, though single readings can be large or run the other way;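 also: the enzyme is Sfp with the accession as filed and its product quenches rhodamine fluorescence; potency is read from the fitted curve at half-maximal effect; 0% = enzyme reaction without inhibitor and -100% = no enzyme wells; top concentration of the series not given in the record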
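Step 1, compound plus 15 nM Sfp-PPTase, 15 min, room temperature. Step 2, add rhodamine-CoA (5 uM) and BHQ-2-YbbR (12.5 uM). Step 3, read 525/598 nm fluorescence at 0 and 30 min.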
TRPML1 ag = human mucolipin-1 channel agonism. AID 624414. TRPML1-expressing cells, Ca2+ dye fluorescence, FDSS; host cell line not named in the record; reference of the full effect not given here. Q9GZU1. 410,000 compounds, 0.12% hits. activation, % (test concentration not listed); in the data active = activation above about 50%; inconclusive = about 30% to 50%; inactive = below about 30%; also: 0% is about no effect; the text of the record puts the active cut at 80%
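Tetracycline-induced TRPML1-DL cells are seeded and incubated overnight before loading with a no-wash Ca2+ dye and quencher. Agonist activity is taken from the 110 s fluorescence read following compound pin-transfer on an FDSS, before EC80 54-4 challenge.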
Menin-MLL FL inh = inhibitors of human menin-MLL interaction, wild-type MLL peptide; FP activity change, % at 61.4 µM; Fluorescence polarization, fluorescein-MLL peptide displacement from menin; 290,000 tested, under 10 active; inconclusive = falling polarisation curve, or a change in total fluorescence; inactive = total fluorescence flat and polarisation flat or rising; no compound was filed as active; the % refers to the polarisation; negative = inhibition;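 also: % of control where 0% means no effect; inhibitors lower the polarisation; unlabelled MLL peptide was the positive control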
The depositor's hits bear a star; ? = inconclusive; . = no result given; & = joins results of further samples; [ ] = remark or other dose. An unsorted share of the library. About 4.4% of those tested had a hit in this group.

#	SMILES	TRPV1 PAM	TRPML1 inh	PINK1 modulator	ClpP mod	Sfp inh	TRPML1 ag	Menin-MLL FL inh
1	COc1ccc(NC(=O)CSc2nnc(-c3ccco3)n2C)cc1	0	3	-2.7%	-1.7%	17%	-1.3	0.1
2	CCOc1ccc(Nc2nc3c(S(=O)(=O)c4cccc(Cl)c4)nnn3c3ccsc23)cc1	.	10	2.7%	2.4%	.	0.7	.
3	CSc1nnc(-c2cnccn2)n1Cc1ccccc1	6	-2	-5.4%[38.3 µM]	-0.2%	19%	1.3	6.1
4	COc1ccc2c(c1)C1(Nc3ccccc3-c3nc4ccccc4n31)C(=O)N2C (stereo not drawn)	2	6	-0.5%	3.3%	-3%	2.2	-1.3
5	O=C(Nc1ccccc1Cl)c1ccc(Cl)cc1Cl	-11	-8	1.6%	.	7%	2.1	-1.8
6	CCCCOc1ccc(N(CC(=O)NCC2CCCO2)C(=O)CCC(=O)Nc2cc(C)ccn2)cc1 (stereo not drawn)	15	-13	2.0%	1.2%	-17%	1.3	0.7
7	CC(C)CCNC(=O)C1CCN(c2nnc(-n3cccc3)s2)CC1	-12	4	1.5%	0.4%	10%	-0.9	-1.4
8	O=C(CSCc1ccc(Br)cc1)N=Nc1c(O)[nH]c2ccccc12	?	24	2.8%	.	2%	4.5	-2.4
9	COC(=O)[C@@H]1C[C@@]2(O)[C@H](O)[C@H](O)[C@H](O)C[C@H]2N1Cc1ccc(C(C)(C)C)cc1	?	-5	-0.1%	0.5%	0%&6%	-0.1	-2.9&10.0
10	NC(=O)c1nsc(C(=O)N(c2ccccc2)C(C(=O)NC2CCCC2)c2ccncc2)c1N (stereo not drawn)	12	5	4.7%	.	16%	0.5	.
11	Cn1c(CNc2ccc(F)cc2)nc2ccccc21	18	0	1.1%	.	14%	0.1	1.3
12	COC(=O)C1CCN(CC(N)=O)CC1	3	26	-2.9%	-16%	9%	0.4	4.4
13	CCCOc1ccc(N2C(=O)CC(NCC#N)C2=O)cc1 (stereo not drawn)	4	41	0.0%	-0.4%	14%	0.1	-1.0
14	COc1ccccc1/C=N/NC(=O)c1cc2c(ccc3ccccc32)o1	1	1	0.1%	3.6%	-2%	3.3	.
15	COc1ccc(C(=O)NCC(=O)N2CCCC(C)C2)cc1OC (stereo not drawn)	-3	3	1.6%	-3.5%	2%	0.1	-0.9
16	O=C(CCc1ccccc1)Nc1ccccc1C(=O)NCc1ccco1	-2	-11	-0.7%	-2.7%	6%	-0.4	3.5
17	CCNC(=O)CSc1nc2ccccc2c(=O)n1CCCOC(C)C	5	16	-2.2%	-0.3%	10%	0.8	0.5
18	COc1ccc(C2=C(N)c3ccccc3C2=O)cc1	11	7	-0.3%[38.3 µM]	-1.3%	10%	-0.2	1.1
19	C=C(C)c1cccc(C(C)(C)NC(=O)N2CCN(c3ccccn3)CC2)c1	5	7	3.3%	-25%	8%	-1.1	0.4
20	CCOc1ccc(N2CC(O)=C(c3ccccc3)C2=N)cc1	0	6	-1.2%	.	10%	0.2	6.4
21	CCOc1ccc(Nc2nc(-c3sc(N)nc3C)cs2)cc1	-2	-4	2.4%	.	-16%	-0.5	6.5
22	CC(=O)c1cc(-c2ccc(F)cc2)n(CC(=O)NC2CCCCCC2)c1C	.	1	-0.8%	1.4%	.	0.7	.
23	O=C1CCC(C(=O)N2CCC(O)CC2)CN1CCc1ccc(Cl)cc1 (stereo not drawn)	2	8	-0.4%	-1.2%	21%	-0.5	.
24	O=C(CSc1nc(=O)n(CCCN2CCOCC2)c2c1CCC2)Nc1ccc(F)cc1F	-4	10	-0.5%	-8.5%	.	0.4	.
25	COc1ccc2sc(N(CCCN(C)C)C(=O)c3nc4ccccc4s3)nc2c1	27	-16	7.7%	.	-9%	0.7	-2.9
26	CC(C)(C)c1ccccc1NC(=O)Cn1cnc2cc([N+](=O)[O-])ccc2c1=O	2	-11	1.8%	1.3%	19%	2.0	-1.0
27	CC(=O)NC1=NN(C(C)=O)C(C)(CS(=O)(=O)c2ccc(Cl)cc2)S1 (stereo not drawn)	6	1	-1.9%	-3.3%	23%	0.2	0.7
28	Cc1cc(C)n(C(C)CC(=O)Nc2cccc(C#N)c2)n1 (stereo not drawn)	.	-8	1.0%	-1.2%	.	-0.1	.
29	COC(=O)C1=C(C(=O)OC)C(C(=O)OC)N2C=CC=CC2=C1C(=O)OC (stereo not drawn)	.	.	3.9%	-8.3%	.	-0.4	.
30	COc1ccc(N(CC(=O)Nc2cc(Cl)ccc2OC)S(=O)(=O)c2c(C)[nH]c(=O)[nH]c2=O)cc1	-3	1	0.3%	1.0%	-11%	0.2	0.7

Four entries out of the list above, sorted by the number in Menin-MLL FL inh, descending:
item	Compound	TRPML1 inh	PINK1 modulator	Sfp inh	Menin-MLL FL inh
18	COc1ccc(C2=C(N)c3ccccc3C2=O)cc1	7	-0.3%[38.3 µM]	10%	1.1
15	COc1ccc(C(=O)NCC(=O)N2CCCC(C)C2)cc1OC (stereo not drawn)	3	1.6%	2%	-0.9
26	CC(C)(C)c1ccccc1NC(=O)Cn1cnc2cc([N+](=O)[O-])ccc2c1=O	-11	1.8%	19%	-1.0
8	O=C(CSCc1ccc(Br)cc1)N=Nc1c(O)[nH]c2ccccc12	24	2.8%	2%	-2.4

Other records.
#	SMILES	TRPV1 PAM	TRPML1 inh	PINK1 modulator	ClpP mod	Sfp inh	TRPML1 ag	Menin-MLL FL inh
31	CCc1nnc(NS(=O)(=O)c2ccc(NC(=S)NC(=O)c3cccnc3)cc2)s1	4	7	3.4%	.	-2%	1.4	-1.6
32	Cc1ccc(S(=O)(=O)N2CCN(C(=O)Cc3ccc4c(c3)OCCO4)CC2)cc1C	-8	13	0.7%	0.7%	13%	0.1	-0.2
33	C/C(=N/NC(=O)CN1CCN(S(=O)(=O)c2ccc(C)cc2)CC1)c1ccco1	7	.	1.3%	-0.5%	15%	.	0.4
34	Cc1cc(F)ccc1S(=O)(=O)Nc1ccccc1C(=O)Nc1ccc2[nH]c(=O)[nH]c2c1	18	-10	0.4%	-11%	-1%	0.3	-1.0
35	O=c1cc2c(n[nH]1)CCCC2	9	-4	-0.3%	-0.4%	6%	-0.5	6.2
36	CC1=C(C(=O)OCc2ccc3c(c2)OCO3)C(c2cccc([N+](=O)[O-])c2)NC(=O)N1 (stereo not drawn)	-4	24	1.5%	1.9%	9%	1.4	1.6
37	Cc1cccc2sc(NC(=O)CN3C(=O)C4CC=CCC4C3=O)nc12 (stereo not drawn)	7	36	-0.1%	.	6%	-0.5	-8.5
38	Cc1cccc(CNC(=O)c2cc(S(=O)(=O)N3CCOCC3)cn2C)c1	-7	24	-1.1%	-2.4%	12%	-0.3	-4.3
39	COc1ccc(CCNC(=S)NCc2cccs2)cc1OC	-15	-8	0.5%	-1.0%	2%	0.4	-1.3
40	CNc1ncnc2c1ncn2[C@H]1CN(Cc2ccco2)C[C@@H](CO)O1	.	15	-0.3%	-0.7%	.	0.2	.
41	C/C(=N/Nc1ccc([N+](=O)[O-])cc1)c1ccc(C)cc1C	-6	-13	?	3.9%	15%	2.5	19
42	CCOC(=O)[C@]12CCC=C1N(Cc1cccc3ccccc13)C(=O)[C@H](CC(=O)NCCC(C)C)C2	.	.	3.1%	-3.1%	.	-0.5	.
43	COC(=O)CCN(C(=O)c1cccc(OC(C)=O)c1)c1ccccn1	?	-5	0.5%	-4.2%	15%	0.2	3.1
44	Cn1c(=O)[nH]c(=O)c2c1nc(N1CCCCC1)n2C/C=N/Nc1ccc(C(=O)O)cc1	8	.	2.6%	0.1%	-7%	.	1.2
45	O=C(CCC(=O)Nc1ccc(F)cc1)N/N=C/c1cccc(Br)c1	-4	21	8.0%	.	-5%	2.7	-0.9
46	CC(C)(C)c1ccc(N2C(=N)SCC2=O)cc1	-14	-7	1.1%	1.1%	19%	0.0	-1.5
47	COc1ccc(S(=O)(=O)N(C(C)=O)c2ccc3oc(=O)sc3c2)cc1	-9	2	-0.4%	4.6%	10µM*	0.0	-1.0
48	CCOC(=O)N1CCC(NC(=O)c2cc3c(=O)n(C)c4ccccc4c3n2C)CC1	-4	-1	11%	4.1%	10%	-0.1	-0.4
49	COc1ccc(N2CCN(S(=O)(=O)c3ccc4c(c3)OCCO4)CC2)cc1	-4	4	-1.1%	.	6%	0.2	-9.0
50	CC(=O)N1CCC(N(Cc2ccc(C)o2)C(=O)Nc2ccccc2F)CC1	.	-6	-0.9%	2.1%	.	-0.1	.
51	COc1ccc2[nH]c3c(c2c1)CCN1C(=O)C(CC(=O)NC/C=C(\C)CCC=C(C)C)C[C@H](C(=O)N2CCOCC2)[C@@]31CCC1CCCC1 (stereo partly drawn)	.	5	2.2%	-4.4%	.	0.0	.
52	C/C(=N/OC(=O)c1ccc(C)cc1)c1ccc(N2C(=O)C3CCCCC3C2=O)cc1 (stereo not drawn)	6	8	-0.4%	-1.2%	-8%	2.2	2.1
53	Cc1c(C)c2c(cc(C)c3c(-c4ccc(Br)cc4)coc32)oc1=O	.	-2	1.6%	-8.1%	.	-0.2	.

An excerpt of these results, with values under each structure.
Each structure is followed by: TRPV1 PAM	TRPML1 inh	PINK1 modulator	ClpP mod	Sfp inh	TRPML1 ag	Menin-MLL FL inh
51. COc1ccc2[nH]c3c(c2c1)CCN1C(=O)C(CC(=O)NC/C=C(\C)CCC=C(C)C)C[C@H](C(=O)N2CCOCC2)[C@@]31CCC1CCCC1 (stereo partly drawn)
→ .	5	2.2%	-4.4%	.	0.0	.
52. C/C(=N/OC(=O)c1ccc(C)cc1)c1ccc(N2C(=O)C3CCCCC3C2=O)cc1 (stereo not drawn)
→ 6	8	-0.4%	-1.2%	-8%	2.2	2.1
